VACV mCherry inh: inhibitors of vaccinia virus infection (mCherry reporter signal); Vaccinia virus mCherry reporter infection, fluorescence; about a quarter of the inactives have no number; Potency, µM (top dose mostly 36.5 µM), without a hit: at the highest dose activity change, negative = inhibition, usual class: inhibitors; 310,000 compounds, 0.63% hits; AID 720579; active = well fitted inhibition curve with a large enough effect; inconclusive = small, poorly fitted or top-dose-only effect; inactive = no such curve, though single readings can be large or run the other way; tested in A549 cells; note: nearly all actives have a fitted effect of over 35% in size; inactives centre near -10
Vaccinia Venus: inhibitors of vaccinia virus (Venus reporter); Vaccinia virus Venus reporter expression, fluorescence; Potency, µM (doses to about 36.5 µM), without a hit: at the top dose activity change, negative = inhibition, most hits filed as inhibitors; 330,000 compounds, 0.46% hits; AID 720580; active means well fitted inhibition curve with a large enough effect; inconclusive means small, poorly fitted or top-dose-only effect; inactive means no such curve, though single readings can be large or run the other way; tested in A549 cells; note: nearly all actives have a fitted effect of over 30% in size; inactives centre near -10
Active calls of the source: *; i = inactive; ? = inconclusive; . = not tested or not shown; [ ] = remark or other dose. % is set by controls: 0 for no effect and ±100 for the full control effect; potency is the fitted concentration of half-maximal effect.

SMILES	VACV mCherry inh	Vaccinia Venus
CN(C(=O)c1cccc(NC(=O)Cc2ccc(NC(=O)C3CCN(C(=O)C4CCCCC4)CC3)cc2)c1)C1CCC1	0.3%	-3.8%
CCOC(=O)Cn1nc(C)c(NC(=O)COc2cccc(Cl)c2)c1C	-5.0%	-19.1%
O=S(=O)(NCc1ccccn1)c1ccc2ccccc2c1	-20.2%	-7.6%
O=C(c1cccs1)N(Cc1ccc(Cl)cc1)C1CCS(=O)(=O)C1 (stereo unspecified)	-3.0%	-9.3%
CCOCCCNC(=O)c1c[nH]c2ccc(S(=O)(=O)N(C)c3ccc(Cl)cc3F)cc2c1=O	?	?
C[C@H]1CN([C@@H](C)CO)C(=O)c2cc(Br)cnc2O[C@H]1CN(C)C(=O)C1CCC1	-2.8%	5.4%
Cc1ccc(C)c(S(=O)(=O)N2CCN(C(=O)CCc3nc4ccccc4c(=O)[nH]3)CC2)c1	-10.5%	-24.4%
Cc1cc(Cl)ccc1OCC(=O)O	-17.8%	-13.0%
CCNc1nc(NC(C)C)nc(N(C#N)CCOc2ccccc2)n1	i	-21.6%
COC(=O)c1[nH]c(C)c(/C(O)=C2\C(=O)C(=O)N(CCCN3CCOCC3)C2c2ccccn2)c1C (stereo unspecified)	-13.6%	-0.8%
COc1ccc(CCNC(=O)CSc2nnnn2-c2ccccc2OC)cc1OC	-3.3%	-11.4%
COCCNC(=O)/C(C#N)=C/C(C)=C/c1ccccc1	-5.1%	-16.1%
N#CCSc1nnc(-c2ccccc2)c(-c2ccccc2)n1	-3.4%	-15.1%
Cc1cc(C)cc(N2C(=O)C3CCCN3C2=S)c1 (stereo unspecified)	-14.3%	-8.4%
c1ccc(Oc2cc(-c3ccccc3)ncn2)cc1	.	9.8%
CC(=NCc1ccccc1)c1ccc(O)cc1O	-23.8%	-3.1%
Cc1ccc(S(=O)(=O)NCCS(=O)(=O)N2CCN(c3ccc(F)cc3)CC2)cc1	-5.7%	-3.4%
OCCN1CCN(CC(O)COc2ccc3c(c2)OCO3)CC1 (stereo unspecified)	.	-1.9%
COc1ccc(CCNc2ncnc3sccc23)cc1OC	-13.1%	-18.2%
Cc1ccsc1C(=O)OCC(=O)N(C)c1c(N)n(Cc2ccccc2)c(=O)[nH]c1=O	-14.6%	-1.7%

4 structures out of the list, sorted by molecular weight, rising:
SMILES	VACV mCherry inh	Vaccinia Venus
CC(=NCc1ccccc1)c1ccc(O)cc1O	-23.8%	-3.1%
COCCNC(=O)/C(C#N)=C/C(C)=C/c1ccccc1	-5.1%	-16.1%
N#CCSc1nnc(-c2ccccc2)c(-c2ccccc2)n1	-3.4%	-15.1%
Cc1ccsc1C(=O)OCC(=O)N(C)c1c(N)n(Cc2ccccc2)c(=O)[nH]c1=O	-14.6%	-1.7%

The listing continues:
SMILES	VACV mCherry inh	Vaccinia Venus
Cc1cccc(NC(=S)N(C)Cc2cn(C)c3ccccc23)c1	-18.4%	-26.3%
COc1cc(OC)c(/C=C/c2ccccn2)c(OC)c1	-15.7%	?
CCSc1ncc(Cl)c(C(=O)Nc2ccccc2)n1	i	-10.7%
COC(=O)c1cncc(O)c1	-7.0%[1.46 µM]	-15.5%
CCc1ccc(NS(=O)(=O)c2cccc3nsnc23)cc1	?	-8.7%
Cc1ccc(S(=O)(=O)N2CCN(Cc3cc(=O)n4nc(-c5ccccc5Cl)sc4n3)CC2)cc1	-7.8%	1.7%
COc1cc(C(=O)N2C[C@H]3C[C@@H](C2)c2cccc(=O)n2C3)cc(OC)c1OC	3.9%	-0.8%
CCCCc1c(C)c2ccc(OCC(C)=O)cc2oc1=O	.	7.3%
COc1cc(SC)ccc1C(=O)N(Cc1ccccc1)c1ccccc1	-6.5%	-15.8%
CN(C)c1ccc(CNC(=O)CCCn2ccc3cc(S(=O)(=O)N4CCCC4)ccc32)cc1	-18.9%	-16.5%
COc1cccc(Nc2ncnc3nc[nH]c23)c1	-10.5%	-22.2%
CSc1ccccc1NC(=O)Cn1nc([N+](=O)[O-])cc1C	i	-6.1%
O=C(Nc1ccc(N2CCOCC2)nc1)c1c(F)cccc1F	i	-4.3%
O=C1NC(Cc2c[nH]c3ccccc23)C(=O)N1c1ccc(F)cc1 (stereo unspecified)	-19.1%	-14.7%
O=c1c2sccc2nc(SCc2cc(=O)n3cc(Br)ccc3n2)n1Cc1ccccn1	7.4%	-4.4%
COc1nc(C)nc2c1sc(=S)n2C	-10.5%	-1.2%
O=C(NCc1ccccc1)c1ccc(-c2ccccc2F)o1	-3.1%	-11.3%
CN(C)c1ccc(NC(=O)c2cnsn2)cc1	-9.0%	1.8%
COc1cccc(C(=O)OCC(=O)Nc2ccccc2N2CCOCC2)c1	-13.9%	-5.6%
CCN1CC2([N+](=O)[O-])CC=C(OC)C([N+](=O)[O-])(C1)C2 (stereo unspecified)	-9.6%	-6.7%
CCC(C)NC(=O)CCc1c(C)nc2c(c(C)nn2-c2ccc(C)cc2)c1C (stereo unspecified)	-19.7%	-22.7%
COc1cccc(-c2nc(CCl)cs2)c1	-6.1%	-14.8%
COC(=O)C1=C(C)NC(=O)/C1=C/c1ccc(CNS(=O)(=O)c2ccc(C)cc2)o1	?	-7.1%
COc1ccc(OC)c(NC(=O)C2(C)CCN2Cc2ccccc2OC(F)F)c1 (stereo unspecified)	-13.0%	-28.6%
CCn1c(CN2CCN(c3cccc(C)c3C)CC2)n[nH]c1=S	?	-21.6%
CN1C(=S)SC(/[N+]([O-])=C\c2cccs2)C1(C)C (stereo unspecified)	-10.8%	-5.2%
COc1cc(C)ccc1OCCSc1nc(-c2cccc(C)c2)nc2cc(=O)[nH]n12	-19.0%	1.1%
Cc1cc(=O)oc2cc(OCC(O)CN3CCN(c4ccccc4)CC3)ccc12 (stereo unspecified)	-17.1%	-17.1%
COc1cccc(OC)c1NC(=O)c1ccc(-c2cc(Cl)ccc2Cl)o1	0.8%	1.7%
COc1ccc(CNC(=O)C2CCN(c3nc4ccccc4[nH]3)CC2)cc1OC	-11.8%	7.9%
COC(=O)c1ccc(NC(=O)C(=O)N2CCN(C(=S)Nc3ccccc3OC)CC2)cc1	-12.9%	-14.3%
CN(C)S(=O)(=O)c1ccc(Nc2nc(C3CC3)nc3c2nnn3Cc2ccccc2Cl)cc1	i	-18.6%
O=C(CSc1nc(=O)n2ccccc2n1)OCc1ccccc1	-17.5%	-5.0%
Cc1ccc(CNC(=O)Cn2c(=O)ccc3cc(S(=O)(=O)N4CCCC4)ccc32)cc1	-1.0%	-1.7%
COc1cc(Cl)c(C)cc1NC(=O)Cn1cc(S(=O)(=O)N2CCC(C)CC2)c2ccccc2c1=O	-18.3%	-8.3%
CC1CCN(c2c(NCC3CCC(C(=O)NCCc4ccccc4)CC3)c(=O)c2=O)CC1 (stereo unspecified)	-8.5%	-18.5%
Nc1nc2ncccn2c1-c1ccc(F)cc1	i	-12.6%
Cc1ccc2nc(NC(=O)c3ccccc3F)sc2c1	i	-12.9%
O=C(Nc1ccc2sc3ccccc3c(=O)c2c1)c1ccccc1Cl	?	?
Fc1cccc(-c2cc3nc4c(c(N5CCC6(CC5)OCCO6)n3n2)CCCC4)c1	i	0.0%
CCc1ccc(NC(=O)Nc2ccc3c(c2)CCC3)cc1	-11.7%	-12.5%
COC(=O)C1=C(c2cccc(OC)c2OC)C[C@@H]2CC[C@H]1N2C(=O)NCCNC(C)=O	i	-8.4%
CC(C)N=C1NN=C(c2ccc(Cl)c(Cl)c2)CS1	-16.6%	-12.9%
CCOC(=O)N1CCN(S(=O)(=O)c2ccc3c(c2)CCN3C(=O)C2CCC2)CC1	i	-15.8%
CCOC1=C2[C@H](c3ccc(Cl)cc3)N(S(=O)(=O)c3ccc(C)cc3)C[C@H]2n2c(=O)n(-c3ccccc3)c(=O)n2C1	20.9%	-4.1%
O=C(O)Cc1cccc2ccccc12	i	-11.6%
COC(=O)c1ccccc1NC(=O)c1nc2nc(C)cc(C)n2n1	.	-13.6%
COCCN1CC(=O)N2C(c3cccc(C)c3)c3[nH]c4ccccc4c3C[C@H]2C1=O (stereo partly specified)	-7.1%	-4.8%
O=S(=O)(c1ccc(-c2cnc(C3CC3)o2)cc1)N1CCN(c2ccccc2)CC1	-3.5%	8.7%
O=C1NC(=O)N(CCC2=CCCCC2)C(=O)/C1=C/c1cccs1	6.9%	8.4%

The list goes on.
SMILES	VACV mCherry inh	Vaccinia Venus
c1ccc(NCCc2ccccn2)cc1	-27.1%	-7.3%
CC#CCN(Cc1ccco1)C(=O)c1ccc(OC2CCN(Cc3ccccn3)CC2)cc1	-10.6%	-20.8%
Cc1c(O[C@@H]2O[C@H](CO)[C@@H](O)[C@H](O)[C@H]2O)c(CO)c(O[C@@H]2O[C@H](CO)[C@@H](O)[C@H](O)[C@H]2O)c2c1O[C@@H](c1ccccc1)C[C@@H]2O	-2.5%	-12.9%
CCc1c(C)nc2ncnn2c1N1CCCC(C(=O)NCc2cccs2)C1 (stereo unspecified)	i	-15.1%
CC(C)Oc1ccc(/C(O)=C2/C(=O)C(=O)N(CCN3CCOCC3)C2c2ccccc2)cc1 (stereo unspecified)	.	?
COC(=O)C1=C(C)NC(=O)NC1c1ccsc1 (stereo unspecified)	.	21.1%
CCn1nc(NC(=O)c2cccnc2)c2cc3cccc(C)c3nc21	-1.4%[1.46 µM]	?
COc1ccc(-c2cc(-c3nc(-c4cc(OC)c(OC)c(OC)c4)no3)[nH]n2)c(OC)c1	-25.1%	-22.4%
O=C(Nc1cccc(Cl)c1)c1cc(S(=O)(=O)N2CCCc3ccccc32)ccc1F	-16.3%	-16.1%
C=CCNc1nc(Nc2ccc(OC)c(OC)c2)c2sc(-c3ccccc3)cc2n1	?	?
CCOC(=O)[C@H]1[C@H]2COc3cc(OC)ccc3[C@@H]2N2C(=O)c3c(C)cc(C)cc3NC(=O)[C@@]12C	-2.4%	-21.8%
CC(C)CC(=O)Nc1nnc(-c2ccco2)s1	-13.8%	-4.4%
NC(=O)CC(NC(=O)Cc1ccc(Br)cc1)c1ccc(NCC2CC2)c([N+](=O)[O-])c1 (stereo unspecified)	-11.3%	-21.6%
COc1ccc(NC(=O)c2[nH]c(C)c(C(C)=O)c2C)cc1Cl	-9.1%	-8.1%
COCCN(CC(=O)NCc1ccccc1)C(=O)CCC(=O)Nc1ccccn1	.	-23.4%
COc1ccc(OC)c(CNC(=O)c2ccc(-c3nc(CSc4ccccc4)c(C)o3)cc2)c1	-25.5%	-16.5%
OC(c1cc(F)cc(Cl)c1)c1ncc(-c2ccccc2C(F)(F)F)[nH]1 (stereo unspecified)	4.4%	10.4%
Cc1cccc(N(C(=O)c2csnn2)C(C(=O)NC2CCCC2)c2ccncc2)c1 (stereo unspecified)	-3.1%	-9.5%
CCCCN1C(=O)C(CC(=O)NCc2ccco2)CC(C(=O)N2CCCCCC2)=C1C (stereo unspecified)	4.0%	-14.6%
Cc1cc(O)c(S(=O)(=O)c2ccccc2)c(C)c1NS(=O)(=O)c1ccccc1	-26.6%	-14.7%
O=C(O)[C@]1(S(=O)(=O)c2ccccc2)C[C@@H]2ON=C(c3cccc(Br)c3)[C@@H]2C1	-25.8%	-14.2%
COc1cccc(CC2(CO)CCCN(Cc3cc4ccccc4[nH]3)C2)c1 (stereo unspecified)	?	-22.5%
O=C(OCC#CCSc1nc2ccccc2s1)c1ccco1	-25.8%	?
COc1ccc(S(=O)(=O)Nc2ccc3oc4c(c3c2)C(=O)CC(C)(C)C4)cc1	-10.5%	4.7%
CC(=O)Nc1ccc(NC(=O)C(C)OC(=O)CCCOc2ccc(Cl)cc2C)cc1 (stereo unspecified)	-13.8%	-3.6%
Cc1ccccc1NCC(=O)N/N=C/C(Br)=C/c1ccccc1	-13.8%	?
CCOc1ccc(NC(=O)N2CCC(CN3CCc4ccccc4C3)CC2)cc1	-11.9%	-8.2%
N#Cc1cccc(NC(=O)c2cc(C3CCCCN3C(=O)CCCc3ccccc3)on2)c1 (stereo unspecified)	i	-3.1%
Cn1c(=O)c2c(nc(NCc3ccccc3)n2CC(=O)NCc2ccccc2)n(C)c1=O	.	-11.0%
CCCSCCCNC(=O)c1ccc(NC(=O)C2=CSCCO2)cc1	-6.9%[7.34 µM]	1.8%[7.34 µM]

In the list so far, these contain a nitro group on carbon:
SMILES	VACV mCherry inh	Vaccinia Venus
CSc1ccccc1NC(=O)Cn1nc([N+](=O)[O-])cc1C	i	-6.1%
CCN1CC2([N+](=O)[O-])CC=C(OC)C([N+](=O)[O-])(C1)C2 (stereo unspecified)	-9.6%	-6.7%
NC(=O)CC(NC(=O)Cc1ccc(Br)cc1)c1ccc(NCC2CC2)c([N+](=O)[O-])c1 (stereo unspecified)	-11.3%	-21.6%

(next part)
SMILES	VACV mCherry inh	Vaccinia Venus
COc1cc(C2NC(=O)NC(C)=C2C(C)=O)cc(OC)c1OC (stereo unspecified)	-9.9%	-4.7%
Cc1cc(OC(C)C(=O)Nc2cccnc2)ccc1Cl (stereo unspecified)	-12.1%	-1.5%
O=C(Nc1cc(Cl)ccc1-n1cncn1)c1cn2ccccc2n1	i	-4.4%
COc1ccc(C2CC(=O)C=C(O)C2)cc1 (stereo unspecified)	i	-22.3%
O=C(NCc1ccco1)c1ccc2c(c1)N(Cc1ccc(Cl)cc1)C(=O)c1ccccc1S2=O (stereo unspecified)	-18.7%	-16.2%
COc1ccc(C(=O)NC(CCSC)C(=O)NCc2nnc3ccccn23)cc1 (stereo unspecified)	-15.0%	-7.5%
Cc1nc2ccccc2c(=O)n1Nc1cccc(Cl)c1	-5.9%	-1.3%
CCOC(=O)C1CCCN(C(=O)c2cccc(S(=O)(=O)N3CCOCC3)c2)C1 (stereo unspecified)	-2.0%	-4.4%
CC12CN3CCN(CC(C3)/C1=N/NC(=O)Nc1ccccc1)C2	-12.2%	8.0%
COc1ccc(C(=O)Cn2c(NCCO)nc3ccccc32)cc1	i	-7.4%
